Source: PubChem BioAssay
Rhodamine autofl: rhodamine region autofluorescence. Rhodamine-region fluorescence, 547/598 nm, Tris buffer; stronger effect = higher value. max dye-equivalent concentration, M. 0.05% of 59,000 active; in the data active means max dye-equivalent concentration above about 11 nM; inconclusive means between about 1.1 nM and that limit
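Compound fluorescence in 100 mM Tris, pH 8.0, read after 15 min at room temperature with 547 nm excitation and 598 nm emission. Output is dye-equivalent concentration from an on-plate rhodamine standard series.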
USP2a inh: blocks human ubiquitin-specific protease USP2a; Potency, µM (series often up to 38.3 µM), without a hit: at the highest dose activity change, negative = inhibition, usual class: inhibitors; O75604; AID 927; USP2a enzymatic assay, qHTS inhibition; 0.1% of 60,000 active;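 further: potency means the concentration at half of the fitted maximal effect; nearly all actives have a fitted effect of over 60% in size; plate controls were DMSO for no effect and NEM full inhibition control for full effect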
Target sequence (O75604 whole entry, looked up): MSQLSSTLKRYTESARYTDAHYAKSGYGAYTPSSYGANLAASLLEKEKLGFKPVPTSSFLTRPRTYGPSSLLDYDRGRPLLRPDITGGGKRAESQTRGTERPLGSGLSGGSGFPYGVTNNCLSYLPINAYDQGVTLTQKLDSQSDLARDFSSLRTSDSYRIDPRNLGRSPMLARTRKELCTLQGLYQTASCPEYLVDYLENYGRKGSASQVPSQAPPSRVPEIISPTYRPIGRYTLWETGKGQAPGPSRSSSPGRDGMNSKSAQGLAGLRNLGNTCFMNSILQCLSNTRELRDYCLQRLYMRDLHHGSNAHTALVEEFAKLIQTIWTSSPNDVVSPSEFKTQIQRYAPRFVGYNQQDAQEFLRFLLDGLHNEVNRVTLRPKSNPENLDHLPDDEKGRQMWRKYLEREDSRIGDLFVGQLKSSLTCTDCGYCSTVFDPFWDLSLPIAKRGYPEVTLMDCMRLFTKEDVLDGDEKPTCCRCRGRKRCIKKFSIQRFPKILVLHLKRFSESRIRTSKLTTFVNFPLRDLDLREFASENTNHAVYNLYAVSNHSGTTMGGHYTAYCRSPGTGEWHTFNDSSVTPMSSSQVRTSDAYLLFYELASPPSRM
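USP2 core (20 nM final) was preincubated with compound for 30 min at RT in 20 mM Tris-HCl pH 8.0, 2 mM CaCl2, 2 mM beta-mercaptoethanol; Ub-PLA2 (20 nM) plus NBD C6-HPC (20 uM) then added, fluorescence read after 2.5 h.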
ERK AVP block: vasopressin-driven ERK pathway inhibition; 0.99% of 72,000 active; HEK293-V1b, vasopressin-stimulated pERK AlphaScreen; Potency, µM (doses to about 57.5 µM), for inactives: at the highest dose activity, negative = inhibition, usual class: inhibitors; further: potency means the concentration at half of the fitted maximal effect; on the % scale 0 is the no-effect control and ±100 the full control effect; nearly all actives have a fitted effect of over 55% in size
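Phosphorylated ERK1/2 detected via AlphaScreen bead proximity in lysates of V1b-expressing HEK293 cells given 25 nM vasopressin for 5 min after 30 min compound exposure (37 °C). AC50 from Hill equation; basal DMSO 0%, vasopressin 100%.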
HEK293 cAMP ctrl: counter-screen for TSHR agonists: cAMP increase in parental HEK293 | 2.5% of 73,000 active | AID 938 | parental HEK293 CNG cAMP sensor, membrane potential fluorescence | Potency, µM (titrated, usually from 57.1 µM), without a hit: at the top dose activation, actives largely listed as activators; further: potency means the concentration at half of the fitted maximal effect; % of control where 0% means no effect; nearly all actives have a fitted effect of over 55% in size
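Counterscreen for endogenous-receptor signalling: CNG-channel HEK 293 cells report cAMP rise by membrane depolarization. After 60 min dye equilibration with 100 uM RO 20-1724, compounds incubated 30 min before bottom-read fluorescence at 590 nm.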
Texas Red fluor: Texas Red region autofluorescence; Compound fluorescence, Texas Red channel, 547/618 nm; stronger effect = higher value; max dye-equivalent concentration, M; 0.06% of 59,000 active; AID 587; in the data active means max dye-equivalent concentration above about 10 nM; inconclusive means between about 1.1 nM and that limit
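Spectral interference profiling: each compound concentration's relative fluorescence, read with a 547 nm excitation and 618 nm emission filter pair, was normalized to a per-plate Texas Red standard curve.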
Fluorescein fluor: compound fluoresces in the fluorescein spectral region; Compound autofluorescence, 480/540 nm, fluorescein-equivalent; stronger effect = higher value; max fluorescein-equivalent concentration, M; 0.91% of 59,000 active; in the data active means max fluorescein-equivalent concentration above about 10 nM; inconclusive means between about 1.1 nM and that limit
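Compounds (23 nL) in 100 mM Tris pH 8.0, 15 min at room temperature, then fluorescence read at 480 nm excitation/540 nm emission. Signal converted to fluorescein-equivalent concentration from an on-plate fluorescein standard curve.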
* hit, by the source's call; i = inactive; ? = inconclusive; / = not tested or not shown; & = joins results of further samples; ! = not active in a repeat; [ ] = remark or other dose. Unless noted, the call rests on the fitted dose curve; in most records, active means well fitted curve in the direction sought with a large enough effect; inconclusive means small, poorly fitted or top-dose-only effect, or another doubt; inactive means no such curve, though single readings can be large; an effect the other way counts as inactive or inconclusive.

cpd	structure	Fluorescein fluor	Rhodamine autofl	Texas Red fluor	HEK293 cAMP ctrl	ERK AVP block	USP2a inh
1	O=C1C[C@@H]2OCC=C3CN4CC[C@]56c7ccccc7N1[C@@H]5[C@@H]2[C@H]3C[C@H]46 (tested in a mixture with another compound)	i	i	i	-9%[11.4 µM]	7%[11.5 µM]	/
2	C=C(C)[C@H]1Cc2c(ccc3c2O[C@@H]2COc4cc(OC)c(OC)cc4[C@@H]2C3=O)O1	i	i	i	?	-20%	/
3	N[C@@H](Cc1ccc(N(CCCl)CCCl)cc1)C(=O)O	/	/	/	-3%	-21%	/
4	Oc1ccc2[nH]cc(CCCCN3CC=C(c4ccccc4)CC3)c2c1	/	/	/	-65%[inhibitor]	-9%	/
5	Cc1nc2ccc(Nc3nc4cc(S(=O)(=O)N5CCOCC5)ccc4o3)cc2s1	?	i	?	-10%	4%	54%[activator]
6	N[C@H](Cc1ccc(N(CCCl)CCCl)cc1)C(=O)O	i	i	i	12%	-5%	7%
7	Brc1c(NC2=NCCN2)ccc2nccnc12	?	i	?	2%&1%	14%&17%	1%
8	CC(C)(c1ccc(OC[C@@H]2CO2)cc1)c1ccc(OC[C@H]2CO2)cc1	/	/	/	23%	11%	/
9	CN(C)C1C(=O)C(C(N)=O)=C(O)[C@@]2(O)C(=O)C3=C(O)c4c(O)cccc4[C@@](C)(O)C3CC12 (stereo partly specified)	/	/	/	/	2%	49%[activator]
10	C[C@]12CC[C@H](O)C[C@@H]1CC[C@H]1[C@H]2CC[C@]2(C)C(=O)CC[C@@H]12	?	i	?	?	-29%[25.7 µM]	1%[17.1 µM]
11	CC(N)[C@@H](O)c1ccccc1 (stereo partly specified)	/	/	/	/	9%	-8%
12	CN(C)[C@@H]1C(=O)C(C(N)=O)=C(O)[C@]2(O)C(=O)C3=C(O)c4c(O)cccc4[C@](C)(O)[C@H]3C[C@@H]12	?	i	i	7%[11.4 µM]	-1%[11.5 µM]	/
13	O=C(NC[C@H]1CCCCN1)c1cc(OCC(F)(F)F)ccc1OCC(F)(F)F	i	i	i	4µM*!	14%&-16%	-1%
14	CC1CC[C@@]2(NC1)OC1CC3C4CC[C@@H]5CC(O)CC[C@@]5(C)C4CC[C@]3(C)C1C2C (stereo partly specified)	/	/	/	/	-24%	61%[activator]
15	C=CC(N)=O	/	/	/	?	11%&6%	/

Next section, starting with the last 7 of the part before.
cpd	structure	Fluorescein fluor	Rhodamine autofl	Texas Red fluor	HEK293 cAMP ctrl	ERK AVP block	USP2a inh
9	CN(C)C1C(=O)C(C(N)=O)=C(O)[C@@]2(O)C(=O)C3=C(O)c4c(O)cccc4[C@@](C)(O)C3CC12 (stereo partly specified)	/	/	/	/	2%	49%[activator]
10	C[C@]12CC[C@H](O)C[C@@H]1CC[C@H]1[C@H]2CC[C@]2(C)C(=O)CC[C@@H]12	?	i	?	?	-29%[25.7 µM]	1%[17.1 µM]
11	CC(N)[C@@H](O)c1ccccc1 (stereo partly specified)	/	/	/	/	9%	-8%
12	CN(C)[C@@H]1C(=O)C(C(N)=O)=C(O)[C@]2(O)C(=O)C3=C(O)c4c(O)cccc4[C@](C)(O)[C@H]3C[C@@H]12	?	i	i	7%[11.4 µM]	-1%[11.5 µM]	/
13	O=C(NC[C@H]1CCCCN1)c1cc(OCC(F)(F)F)ccc1OCC(F)(F)F	i	i	i	4µM*!	14%&-16%	-1%
14	CC1CC[C@@]2(NC1)OC1CC3C4CC[C@@H]5CC(O)CC[C@@]5(C)C4CC[C@]3(C)C1C2C (stereo partly specified)	/	/	/	/	-24%	61%[activator]
15	C=CC(N)=O	/	/	/	?	11%&6%	/
16	O=c1[nH]c2c(c(=O)n1C1CCCCC1)CCC2	i	i	i	-56%[inhibitor]	-6%	2%
17	CN1CCN(C(=O)COc2ccc(C(C)(C)C)cc2Br)CC1	i	i	i	-3%	-3%	1%
18	CCC(C)NC(=O)c1c(N)n(CCCOC)c2nc3ccccc3nc12 (stereo unspecified)	i	i	i	11%	4%	41%[activator]
19	CC(C)N(CCC(C(N)=O)(c1ccccc1)c1ccccn1)C(C)C (stereo unspecified)	?	i	i	/	0%	-4%
20	COc1ccc(Cc2nccc3cc(OC)c(OC)cc23)cc1OC	?	i	i	?	44%[activator]	31%[activator]
21	C[C@]12CCC3C(CC[C@H]4C[C@@H](O)CC[C@]34C)[C@@H]1CCC2=O (stereo partly specified)	/	/	/	/	-12%	/

Some of the compounds tested. The share of hits here may be higher or lower than overall.
